FGF22 binding: FGF22 (human) thermal shift binding; Q9HCT0; calls only at 9.99 µM; recombinant FGF22 thermal shift, SYPRO orange fluorescence; percent of sucrose octasulfate shift, DMSO zero; hit rate 1.5% among 340,000;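 active = melting point raised past a set limit in the mean and every replicate; three in four hits are not shown here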
Target sequence (Q9HCT0 whole entry, looked up): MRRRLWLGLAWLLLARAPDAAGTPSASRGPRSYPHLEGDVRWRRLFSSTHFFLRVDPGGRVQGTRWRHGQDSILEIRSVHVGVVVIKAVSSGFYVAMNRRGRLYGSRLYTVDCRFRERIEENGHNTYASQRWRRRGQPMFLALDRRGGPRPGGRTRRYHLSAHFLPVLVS
Ecoli rRNA inh: inhibits bacterial ribosomal RNA function over humanized ribosomes. hit rate 1.6% among 350,000. GFP signal change (wild-type ribosome), % (test concentration not listed). AID 720706. E. coli WT GFP vs humanized-ribosome RFP mutants, fluorescence, 24 h; hits give low values; DMSO median 0, no signal -100;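 active = significant combined selectivity score with lowered wild-type GFP, culture density cut under 30%, mutant RFP and density less affected; inactive = any of these conditions unmet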; also: one replicate is shown; some compounds called inactive have numbers as strong as hits
Ecoli rRNA inh OD600: recorded beside Ecoli rRNA inh, whose call it bears; OD600 change, %; measured here: OD600 growth;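 optical density of the mix in the first replicate; 0 = DMSO median and -100 = no signal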
Ecoli rRNA inh RFP: further read-out of Ecoli rRNA inh, marked with its call; RFP signal change, %; measured here: RFP humanized mutant strains;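 first replicate; 0 = DMSO median and -100 = no signal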
* marks the source's active call; other numbers are inactive results; i = inactive; + = active, no number; & = joins results of further samples.

Ecoli rRNA inh	FGF22 binding	Ecoli rRNA inh OD600	Ecoli rRNA inh RFP	SMILES
26	i	24	7.3	CC(C)CC1O[C@@H](C)[C@@H]2CN3CCc4c([nH]c5ccccc45)[C@@H]3C[C@@H]2N1C (some centres not stated)
-12	i	7	-4.2	O=C1NC(c2cccc(C(F)(F)F)c2)c2c(-c3ccccc3)n[nH]c21 (configuration not stated)
10	i	7	3.0	CN(c1cccnc1)c1ccc(NC(=O)Cc2c[nH]c3ccccc23)cc1-c1cccnc1F
8	i	5	0.1	C[C@H]1CN([C@@H](C)CO)C(=O)Cc2cc(NC(=O)Nc3ccc4c(c3)OCO4)ccc2O[C@@H]1CN(C)C(=O)Nc1ccccc1
2	i	-6	-0.5	C[C@@H]1CCCCO[C@@H](CN(C)Cc2ccccc2)[C@H](C)CN([C@H](C)CO)C(=O)c2cc(NC(=O)c3ccccc3)ccc2O1
-2	i	-2	0.2	C[C@@H]1CCCCO[C@H](CN(C)C(=O)Cc2ccccc2)[C@H](C)CN([C@@H](C)CO)C(=O)c2cc(NC(=O)CCC(F)(F)F)ccc2O1
1	i	-24	-6.6	C[C@H](CO)N1C[C@H](C)[C@H](CN(C)CC2CCCCC2)OCCCC[C@H](C)Oc2ccc(NC(=O)NC3CCCCC3)cc2C1=O
-2	i	-2	0.2	COC(=O)C[C@H]1CC[C@H]2[C@H](COc3ccc(NC(=O)c4cccs4)cc3C(=O)N2C)O1
17	i	25	5.7	COCc1[nH]nc2c1C(c1ccccc1)N(c1ccccc1)C2=O (configuration not stated)
-57	i	-79	-9.3	COc1cccc(-c2ccc(C3[C@@H]4CN(S(=O)(=O)Cc5ccccc5)C[C@H]3N4)cc2)c1 (some centres not stated)
-7	i	-6	-4.7	CSCCC(c1nc2ccccc2[nH]1)n1c(-c2cc(C(F)(F)F)cc(C(F)(F)F)c2)nc2ccccc21 (configuration not stated)
-20	i	-49	21	COC(=O)C1=C(C)N(Cc2ccccc2C(F)(F)F)C(=NCc2cc(OC)c(OC)c(OC)c2)NC1c1ccc(Cl)cc1 (configuration not stated)
1	i	-2	1.1	CCCNC(=O)C[C@@H]1CC[C@@H]2[C@@H](COc3ccc(NC(=O)Nc4ccccc4)cc3C(=O)N2C)O1
-2	i	-3	1.4	Cc1noc(C)c1S(=O)(=O)N(C)C[C@@H]1OCCCC[C@H](C)Oc2ccc(NC(=O)Nc3ccc4c(c3)OCO4)cc2C(=O)N([C@H](C)CO)C[C@@H]1C
-4	i	12	-0.5	CCc1cccc(-n2c(C)cc(O)cc2=O)c1
-12	i	-10	0.2	CCNC(=O)N1CCN(c2ccc(N3CCN(Cc4ccccc4)[C@@H](C)C3)c(C)c2)[C@H](C)C1
2	i	6	0.2	C[C@@H]1CCCCO[C@@H](CN(C)C(=O)c2ccncc2)[C@@H](C)CN([C@@H](C)CO)C(=O)c2cc(NC(=O)NC3CCCCC3)ccc2O1
4	i	9	8.1	COc1ccc(-c2ccc3c(c2)[C@H]2[C@H](CCN2S(=O)(=O)c2ccc(OC)cc2)[C@H](CO)N3)cc1
12	i	10	4.4	Nc1ccn([C@@H]2O[C@H](C(=O)N3CCN(C(=O)C(F)(F)F)CC3)[C@@H](O)[C@H]2O)c(=O)n1
-14	i	-46	6.5	CC(=O)C1=C(C)N(Cc2ccc(Cl)cc2)C(=S)NC1c1ccc(F)cc1 (configuration not stated)
0	i	5	-1.3	CN1C(=O)c2cc(NC(=O)C3CC3)ccc2OC[C@H]2O[C@H](CC(=O)NCc3cccc(F)c3)CC[C@@H]21
1	i	-6	0.6	COCC(=O)Nc1ccc2c(c1)[C@@H]1C[C@H](CC(=O)NCc3ccc(Cl)cc3)O[C@@H](CO)[C@@H]1O2
9	i	16	-2.5	Cc1noc(C)c1NC(=O)Nc1ccc2c(c1)C(=O)N([C@H](C)CO)C[C@@H](C)[C@@H](CN(C)Cc1ccc(C(=O)O)cc1)OCCCC[C@H](C)O2
1	i	-2	1.2	CCCNC(=O)C[C@@H]1CC[C@H]2[C@H](COc3ccc(NC(=O)NC(C)C)cc3C(=O)N2C)O1
2	i	-9	3.8	COc1cccc(S(=O)(=O)N2CCCCN3[C@H](CO)[C@H](c4ccc(-c5ccncc5)cc4)[C@H]3C2)c1

Shown with tabs: 4 of the compounds above
SMILES	Ecoli rRNA inh	FGF22 binding	Ecoli rRNA inh OD600	Ecoli rRNA inh RFP
Nc1ccn([C@@H]2O[C@H](C(=O)N3CCN(C(=O)C(F)(F)F)CC3)[C@@H](O)[C@H]2O)c(=O)n1	12	i	10	4.4
CCNC(=O)N1CCN(c2ccc(N3CCN(Cc4ccccc4)[C@@H](C)C3)c(C)c2)[C@H](C)C1	-12	i	-10	0.2
COCC(=O)Nc1ccc2c(c1)[C@@H]1C[C@H](CC(=O)NCc3ccc(Cl)cc3)O[C@@H](CO)[C@@H]1O2	1	i	-6	0.6
C[C@@H]1CCCCO[C@@H](CN(C)Cc2ccccc2)[C@H](C)CN([C@H](C)CO)C(=O)c2cc(NC(=O)c3ccccc3)ccc2O1	2	i	-6	-0.5

Additional structures.
Ecoli rRNA inh	FGF22 binding	Ecoli rRNA inh OD600	Ecoli rRNA inh RFP	SMILES
-7	i	-11	1.7	O=C(C[C@@H]1CC[C@H]2[C@@H](COC[C@H](O)CN2Cc2cc(F)ccc2F)O1)NCc1ccc(Cl)cc1
12	i	17	7.6	COc1cc2c(cc1OC)[C@@H](NC(=O)c1ccncc1)[C@H](C)[C@H]2c1ccccc1
-59&-62	i	-74&-81	-17&-16	Fc1ccccc1-c1ccc(C2[C@@H]3CN(Cc4ccccc4)C[C@H]2N3)cc1 (some centres not stated)
-2	i	-4	-2.8	COc1ccccc1CNC(=O)C[C@H]1C[C@@H]2c3cc(NC(=O)CC4CC4)ccc3O[C@@H]2[C@H](CO)O1
2	i	6	3.3	C[C@H](CO)N1C[C@H](C)[C@H](CN(C)Cc2ccc(C(=O)O)cc2)OCCCC[C@H](C)Oc2ccc(NS(=O)(=O)c3cn(C)cn3)cc2C1=O
2	i	-5	2.5	C[C@@H]1CCCCO[C@H](CN(C)Cc2ccc(C(F)(F)F)cc2)[C@H](C)CN([C@@H](C)CO)C(=O)c2cc(NS(C)(=O)=O)ccc2O1
-5	i	-7	1.8	Cc1ccc(S(=O)(=O)N(C)C[C@@H]2Oc3c(NS(=O)(=O)c4ccc(F)cc4)cccc3C(=O)N([C@@H](C)CO)C[C@@H]2C)cc1
-8	i	-15	0.5	Cc1ccccc1S(=O)(=O)N1CC[C@H]2[C@@H](CO)N(C)c3ccc(Br)cc3[C@H]21
-14	i	-35	-2.8	CCC(=O)N1CC[C@@H]2[C@H]1c1cc(-c3cccc(F)c3)ccc1N(C)[C@H]2CO
-13	i	-15	10	COc1cccc(C(=O)N[C@H](C(=O)N2CCC[C@H]2C(=O)NCCc2ccccc2Cl)C2CCCCC2)c1
1	i	3	-1.0	Cc1ccc(S(=O)(=O)Nc2ccc3c(c2)C(=O)N([C@H](C)CO)C[C@H](C)[C@@H](CN(C)S(=O)(=O)c2ccc(Cl)cc2)OCCCC[C@@H](C)O3)cc1
-2	i	-10	1.5	COc1cccc(NC(=O)C[C@H]2CC[C@H]3[C@H](COc4ccc(NS(=O)(=O)c5cccc(F)c5)cc4C(=O)N3C)O2)c1
-2	i	1	-0.1	O=C(c1ccccc1)N1C[C@@H]2[C@H](c3ccccc31)[C@H](CO)N2Cc1cocn1
-2	i	-12	3.0	C[C@@H]1CN([C@H](C)CO)C(=O)c2cc(NS(=O)(=O)c3ccc(Cl)cc3)ccc2O[C@H]1CN(C)S(=O)(=O)c1ccccc1
1	i	2	-0.7	C[C@@H]1CCCCO[C@@H](CN(C)C(=O)NC2CCCCC2)[C@H](C)CN([C@H](C)CO)C(=O)c2cc(NS(C)(=O)=O)ccc2O1
-29	i	-43	-4.0	Cc1ccc(S(=O)(=O)N(C)[C@H]2C[C@H]3c4[nH]c5cccc(-c6ccccc6)c5c4CCN3C(=O)[C@H]2[C@H](C)O)cc1
1	+	5	-0.5	CCCNC(=O)N1[C@@H]2CN(C(=O)c3ccccc3)c3ccccc3[C@@H]2[C@@H]1CO
2	i	-3	3.5	Cc1noc(C)c1S(=O)(=O)Nc1ccc2c(c1)CC(=O)N([C@H](C)CO)C[C@H](C)[C@H](CN(C)Cc1ccc(Oc3ccccc3)cc1)O2
0	i	-4	-1.0	C[C@H]1CCCCO[C@H](CN(C)Cc2ccc(C(F)(F)F)cc2)[C@@H](C)CN([C@@H](C)CO)C(=O)c2cc(NC(=O)Nc3ccccc3)ccc2O1
-6	i	2	-0.7	CN(C)c1ccc2c(c1)[C@@H]1C[C@@H](CC(=O)NCc3ccc(-c4ccccc4)cc3)O[C@H](CO)[C@@H]1O2
-29	i	-44	-1.6	CC(C)C[C@H](NC(=O)c1ccc(Cl)c(Cl)c1)C(=O)N1CCC[C@H]1C(=O)NCc1ccccc1
2	i	6	-1.1	C[C@@H]1CCCCO[C@@H](CN(C)S(=O)(=O)c2ccc(F)cc2)[C@@H](C)CN([C@@H](C)CO)C(=O)c2cc(NC(=O)Cc3ccccc3)ccc2O1
-3	i	-7	3.0	COc1ccc(NC(=O)Nc2ccc3c(c2)CC(=O)N([C@H](C)CO)C[C@H](C)[C@H](CN(C)Cc2ccc(C(F)(F)F)cc2)O3)cc1
0	i	-1	0.6	CC(=O)Nc1ccc2c(c1)C(=O)N(C)[C@H]1CC[C@@H](CC(=O)NCc3ccc4c(c3)OCO4)O[C@@H]1CO2
0	i	7	-0.8	C=CC(=O)NC1CCCCN(CCC)C1=O (configuration not stated)

Compound profiles (already shown). Order of screens: Ecoli rRNA inh	FGF22 binding	Ecoli rRNA inh OD600	Ecoli rRNA inh RFP
`Cc1ccc(S(=O)(=O)Nc2ccc3c(c2)C(=O)N([C@H](C)CO)C[C@H](C)[C@@H](CN(C)S(=O)(=O)c2ccc(Cl)cc2)OCCCC[C@@H](C)O3)cc1` is entered as 1	i	3	-1.0
`C[C@@H]1CCCCO[C@@H](CN(C)C(=O)NC2CCCCC2)[C@H](C)CN([C@H](C)CO)C(=O)c2cc(NS(C)(=O)=O)ccc2O1` is entered as 1	i	2	-0.7

New compounds follow.
Ecoli rRNA inh	FGF22 binding	Ecoli rRNA inh OD600	Ecoli rRNA inh RFP	SMILES
-9	i	-9	-2.8	C[C@@H]1CCCCO[C@@H](CN(C)C(=O)c2ccncc2)[C@@H](C)CN([C@H](C)CO)C(=O)c2cc(NC(=O)NC3CCCCC3)ccc2O1
-15	i	-22	4.8	Cc1cc(Nc2ccc(OC(F)F)cc2)cc(=O)n1-c1ccc(OC(F)F)cc1
-9	i	-2	-1.9	COc1ccccc1S(=O)(=O)N1CC[C@@H]2[C@H](CO)Nc3ccc(Br)cc3[C@@H]21
-5	i	-8	1.5	CN1C(=O)c2cc(NC(=O)c3cccc(Cl)c3)ccc2OC[C@H]2O[C@H](CC(=O)NC3CCCCC3)CC[C@@H]21
-7	i	2	1.6	CCOC(=O)CC1(Cc2ccccc2)Oc2ccccc2O1
-3	i	1	1.9	C[C@H](CO)N1C[C@H](C)[C@@H](CN(C)S(=O)(=O)c2ccc(F)cc2)Oc2c(NS(=O)(=O)c3ccc(Cl)cc3)cccc2C1=O
-17	i	-14	4.7	CC(=O)C1=C(C)N(Cc2ccc(F)cc2)C(=S)NC1c1cccc(Br)c1 (configuration not stated)
24	i	20	2.0	C=CCN1C(=O)c2n[nH]c(COC)c2C1c1ccc(Br)cc1 (configuration not stated)
-10	i	0	0.7	C=CCO[C@H]1CN(C(=O)OC)[C@@H](c2ccccc2Br)C[C@H]1OCC=C
1	i	-9	-1.4	C[C@@H]1CCCCO[C@H](CN(C)C(=O)Nc2ccc3c(c2)OCO3)[C@@H](C)CN([C@@H](C)CO)C(=O)c2cc(NS(=O)(=O)c3ccc(F)cc3)ccc2O1
-4	i	-9	4.8	O=C(CC1CCCC1)N[C@H](C(=O)N1CCC[C@H]1C(=O)NC1CCCC1)C1CCCCC1
0	i	6	-1.2	CNC(=O)C[C@@H]1CC[C@H]2[C@@H](COc3ccc(NC(=O)c4ccc5c(c4)OCO5)cc3C(=O)N2C)O1
2	i	5	0.5	CN(C)CC(=O)Nc1ccc2c(c1)[C@@H]1C[C@@H](CC(=O)N3CCOCC3)O[C@H](CO)[C@@H]1O2
-5	i	-17	-0.1	CN1C(=O)c2cc(NC(=O)c3cccc(F)c3)ccc2OC[C@H]2O[C@H](CC(=O)NCc3ccccc3)CC[C@H]21
-1	i	5	0.2	C[C@@H]1CCCCO[C@H](CN(C)S(=O)(=O)c2cccs2)[C@@H](C)CN([C@@H](C)CO)C(=O)c2cc(NC(=O)NC3CCCCC3)ccc2O1
3	i	12	-1.9	C[C@@H]1CCCCO[C@H](CN(C)C(=O)CCCN(C)C)[C@@H](C)CN([C@@H](C)CO)C(=O)c2cc(NC(=O)c3ccncc3)ccc2O1
-20	i	-64	16	O=C(c1ccccc1)N1CC[C@H]2[C@H](CO)Nc3ccc(-c4ccc(F)cc4)cc3[C@H]21
-7	i	-13	1.1	Cc1cccc(S(=O)(=O)N2CC[C@@H]3[C@H](CO)Nc4ccc(C#Cc5cccnc5)cc4[C@@H]32)c1
-6	i	0	-4.9	Cc1cc(N2CCN(C(=O)OC(C)(C)C)C[C@H]2C)ccc1N1CCN(Cc2ccccc2)[C@@H](C)C1
-1	i	-5	4.5	Cc1noc(C)c1NC(=O)Nc1ccc2c(c1)CC(=O)N([C@@H](C)CO)C[C@H](C)[C@@H](CN(C)Cc1ccc(Oc3ccccc3)cc1)O2
-2	i	-7	6.3	C[C@@H]1CN([C@@H](C)CO)C(=O)c2cc(NS(=O)(=O)c3ccc(F)cc3)ccc2O[C@@H]1CN(C)S(=O)(=O)c1ccccc1

Screening data deposited in PubChem BioAssay by Broad Institute.

A portion of the library; rates above refer to the full screens.
